Beta2AR agonist – agonists of human beta-2 adrenergic receptor inducing internalization. Am2.2-beta2AR cells, FAP receptor internalization, flow cytometry; reference of the scale not given here. actives 0.43% (n = 340,000). response, % (no concentration beside the values);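 active = response above a set limit, near 3 SD of response in nonfluorescent compounds, cut at about 42% in these data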;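 also: stock transfer was 100 nL into about 11 µL; a reference agonist was the positive control; negative values mostly stem from fluorescent compounds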
Target sequence (P07550 whole entry, looked up): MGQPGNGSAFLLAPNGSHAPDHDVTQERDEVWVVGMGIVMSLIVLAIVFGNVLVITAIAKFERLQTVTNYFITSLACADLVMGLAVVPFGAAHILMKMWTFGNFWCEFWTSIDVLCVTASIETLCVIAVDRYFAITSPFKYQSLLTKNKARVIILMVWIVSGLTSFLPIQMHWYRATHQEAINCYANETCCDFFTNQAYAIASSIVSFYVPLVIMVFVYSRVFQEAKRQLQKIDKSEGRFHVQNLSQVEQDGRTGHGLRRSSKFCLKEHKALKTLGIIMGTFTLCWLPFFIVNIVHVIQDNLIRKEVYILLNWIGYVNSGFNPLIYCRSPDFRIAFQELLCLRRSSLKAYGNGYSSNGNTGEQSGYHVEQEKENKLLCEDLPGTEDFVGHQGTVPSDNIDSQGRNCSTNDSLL
Bfl-1 A1 inh – inhibitors of the anti-apoptotic protein A1, read as caspase activation; AID 2462; actives 0.066% (n = 330,000); caspase activation, % (no concentration beside the values); MEF A1-2A-BIM cells, Caspase-Glo 3/7 luminescence, 3 h; percent of clofoctol response, vehicle zero;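 active = over half of replicate activation scores above 10%, or exactly half above 10 with the replicate mean above 10; inconclusive = replicate mean below 10 yet half the replicates above 10; inactive = over half of replicates below 10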;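 also: wells of about 30 µL received 50 nL stock; many hits fall short of the cut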
E coli growth – blocks Escherichia coli growth; OD600, 23 h; hits give low values; OD600 absorbance (no concentration beside the values); actives 0.21% (n = 330,000); AID 1053175;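 active = OD600 absorbance below the run mean of sample wells minus 3.6 SD, in any replicate, cut at about 0.56 in these data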;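 also: stock transfer was 300 nL into about 60 µL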
Vif A3G – inhibitors of Vif binding to APOBEC3G peptide, primary screen, biochemical, TR-FRET, GST-Vif 1-94, biotin-A3G peptide, dose response retest (AID 1117319); actives 0.57% (n = 260,000); TR-FRET GST-Vif / biotin-A3G peptide binding; higher % means a stronger effect; test concentration not given here; strong numbers were not always called active; inhibition, %, or IC50 in µM where a hit was titrated;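 active = above the screen mean plus three standard deviations and confirmed in dose response; inconclusive = results disagree or hit not tested in dose response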;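 also: Vif residues 1-94 fused to GST binding biotinylated APOBEC3G peptide 110-148; 0% = full assay without inhibitor and 100% = GST in place of GST-Vif; retest series ran down from 100 µM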
HNF4A DNA FP – change in binding of human HNF4 alpha to DNA | AID 1224865 | activity change, % at 10 µM | actives 0.3% (n = 360,000) | HNF4a-FITC DNA binding, fluorescence polarization, 1 h | P41235; in the data active = activity change above about 30%, passing the limit was not always enough;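 also: controls were the assay level and a saturating level of protein; the project sought stronger binding though the title names inhibitors; some compounds called inactive have numbers as strong as hits; positive values seem to mean higher polarization but the record does not say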
Target sequence (P41235 whole entry, looked up): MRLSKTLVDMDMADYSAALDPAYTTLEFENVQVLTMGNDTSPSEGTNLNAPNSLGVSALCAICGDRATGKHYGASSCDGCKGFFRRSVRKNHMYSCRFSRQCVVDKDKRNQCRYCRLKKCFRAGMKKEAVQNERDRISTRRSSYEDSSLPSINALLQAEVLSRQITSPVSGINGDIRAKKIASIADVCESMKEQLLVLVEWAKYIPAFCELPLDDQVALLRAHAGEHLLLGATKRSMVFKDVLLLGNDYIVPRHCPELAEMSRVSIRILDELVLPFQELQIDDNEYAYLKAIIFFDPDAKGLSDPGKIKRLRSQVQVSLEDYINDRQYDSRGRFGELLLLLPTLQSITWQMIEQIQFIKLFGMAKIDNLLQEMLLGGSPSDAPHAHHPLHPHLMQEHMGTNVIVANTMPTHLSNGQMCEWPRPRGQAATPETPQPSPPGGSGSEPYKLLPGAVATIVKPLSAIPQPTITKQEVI
LANA-H2A inh – blocks KSHV LANA binding to histone H2A/H2B; Q9QR71; inhibition, % (no concentration beside the values); cell-free LANA-H2A/H2B peptide, fluorescence polarization; actives 0.6% (n = 320,000); in the data active = inhibition mostly above about 10%, no sharp cut-off; inactive = mostly below about 6.7%;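 also: stock transfer was 7.5 nL into about 10 µL; 0% = median of vehicle wells and 100% = median of positive control wells; one replicate is shown; the record names a cut of 25% in any replicate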
UCH37 inh – blocks the human deubiquitinase UCH37; purified proteasome/UCH37, Ub-AMC cleavage fluorescence; AID 588478; actives 0.33% (n = 330,000); Q9Y5K5; inhibition, % (concentration not given with the values);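 active = mean of two replicates above 20%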;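 also: 0% = compound-free wells with enzyme and 100% = wells lacking proteasome; stock transfer was 100 nL into about 20 µL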
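Material: human UCH37 enzyme supplied as purified proteasome complex / Amount: 0.15 nM proteasome as dispensed / Buffer or medium: pH 7.4 Tris-HCl (50 mM) with ovalbumin, ATP-MgCl2, DTT / Times: preincubation 30 min, reaction 25 min, room temperature / Technique: AMC fluorescence from Ub-AMC cleavage, excitation 355 nm, emission 460 nm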
* hit, by the source's call; ? = inconclusive; nt = not tested or not shown.

SMILES | Beta2AR agonist | Bfl-1 A1 inh | E coli growth | Vif A3G | HNF4A DNA FP | LANA-H2A inh | UCH37 inh
c1ccc(Nc2nc(N3CCCC3)nc(N3CCOCC3)n2)cc1 | 1 | 0.4 | 0.71 | nt | 0.3 | -5.1 | -4.7
CC(NC(=O)c1ccccc1Br)c1nnc(SCC(=O)NC2=NCCS2)n1C (stereo not given) | 7 | ? | 0.68 | nt | -2.9 | 5.5 | 2.2
Cc1cc(C)n(C(C)CC(=O)Nc2ccc(-c3ccno3)cc2)n1 (stereo not given) | 2 | 1.5 | 0.68 | 0% | 0.2 | -3.4 | 0.9
CC(=O)c1cccc(NC(=O)CSc2nc(=O)n(CCCN3CCOCC3)c3c2CCC3)c1 | -1 | 0.4 | 0.65 | 3% | 5.4 | 0.4 | 1.8
COc1cc(/C=C/C(=O)OCC(=O)Nc2ccc3c(c2)OCCO3)ccc1O | 0 | 0.6 | 0.67 | 16% | -1.3 | 1.9 | -10
COc1cc(C#N)ccc1OCC(=O)Nc1cccc(S(=O)(=O)N2CCCC2)c1 | -11 | 1.1 | 0.72 | -11% | 1.2 | 0.1 | 0.9
N#C/C(=C\c1cccc(Oc2ccc(C(F)(F)F)cc2[N+](=O)[O-])c1)c1nc2ccccc2[nH]1 | 7 | 0.0 | nt | -2% | 4.9 | 1.2 | -18
COc1ccc(S(=O)(=O)N(CC(=O)NC2CC3CCC2C3)c2ccccc2OC)cc1 (stereo not given) | -3 | -1.0 | 0.64 | nt | 0.5 | -11 | 1.3
C=C(C)C(=O)Nc1cccc(C2=NOC3(C2)C[C@@H](C(N)=O)N(C(=O)c2cc([N+](=O)[O-])cc([N+](=O)[O-])c2C)C3)c1 (stereo not given in full) | -10 | -1.1 | nt | nt | -18 | -1.8 | 1.3
O=C(Cc1ccc([N+](=O)[O-])cc1)NCc1ccncc1 | -10 | 0.2 | 0.64 | -8% | 3.4 | -9.5 | 2.7
Cn1cnnc1SCC(=O)NC(=O)NC1CCCC1 | 5 | 0.1 | 0.68 | 3% | -3.6 | 3.0 | 6.0
S=c1[nH]nc(Nc2ccccc2)s1 | 16 | 4.4 | 0.7 | 5% | 3.3 | 6.4 | 5.9
Cc1ccccc1NC(=S)NCC(c1cccnc1)N1CCOCC1 (stereo not given) | 0 | 0.7 | 0.7 | nt | 1.3 | -0.9 | 3.1
O=C(NC(=S)N1CCCCC1)C12CC3CC(CC(C3)C1)C2 | -3 | -0.2 | 0.7 | -5% | -1.7 | -0.3 | 0.5
CC(C)CN1CCN(Cc2cc(F)ccc2-n2cccn2)CC1CCO (stereo not given) | 4 | 0.7 | 0.71 | 30% | -1.5 | 6.1 | 0.3
CCCCN(CCCNC(=O)CN1C(=O)COc2ccc(S(=O)(=O)N3CCC(C)CC3)cc21)Cc1ccccc1 | 9 | -0.5 | 0.7 | nt | 1.9 | -5.3 | -0.5
COc1ccc(C2c3c(nc[nH]c3=O)Oc3nc[nH]c(=O)c32)cc1 | -2 | 0.0 | 0.69 | -2% | 1.7 | -1.1 | -5.5
O=c1c(-c2ccc3c(c2)OCCO3)c(C(F)(F)F)oc2cc(O)cc(O)c12 | nt | 0.5 | 0.66 | -3% | 0.6 | 0.6 | 2.9
C/C(=N/Nc1nc(-c2ccccc2F)nc2ccccc12)c1ccccc1O | -20 | 0.3 | nt | -6% | 7.1 | -6.5 | nt
CC(C)(C)OC(=O)C[C@@H]1C/C=C\C[C@@H](CC(=O)NCCO)C(=O)N[C@H](Cc2ccccc2)COC1=O | 5 | 0.1 | nt | nt | -0.6 | 2.6 | -4.1
COc1cccc(-c2cccc(NC(=O)C3CCN(Cc4cnn(C)c4)CC3)c2)c1 | 8 | -0.1 | 0.7 | -5% | -1.1 | 7.5 | 1.2
CCOC(=O)c1c(C)[nH]c(C(=O)COC(=O)c2ccco2)c1C | 7 | 1.6 | 0.7 | -3% | 2.5 | -1.4 | 3.1
CC1CCCCC12NC(=O)N(CC(=O)NCCc1ccccn1)C2=O (stereo not given) | 5 | -0.2 | 0.65 | 20% | -2.9 | 0.8 | 0.9
Cc1ccccc1C1C(C#N)=C(N)N(N(C)C)C2=C1C(=O)CC(C)(C)C2 (stereo not given) | 1 | 1.3 | 0.71 | nt | 3.4 | -3.3 | -30
COc1cc(CNC(=O)c2ccccc2NC(=O)C2=C(C)OCCS2)cc(OC)c1OC | -10 | 1.4 | 0.7 | 2% | 0.2 | 2.1 | 1.4
CCC(=O)N1CCc2cc(S(=O)(=O)CCC(=O)NCc3ccc(OC)cc3)ccc21 | -14 | 0.5 | 0.69 | nt | -0.3 | 0.4 | 1.9
Cc1ccc(NC(=O)COC(=O)CCC(=O)c2cccs2)cc1S(=O)(=O)N1CCOCC1 | -2 | 0.9 | 0.7 | 3% | 0.9 | 1.3 | 3.6
CC(NCc1ccc(OCc2ccc(Cl)cc2)cc1)C(O)c1ccccc1 (stereo not given) | 79* | -0.7 | 0.54 | 2% | 0.4 | 1.5 | 3.7
CCc1ccc(N2CC(C(=O)OCC(=O)Nc3ccc(C#N)cc3)CC2=O)cc1 (stereo not given) | 3 | -0.3 | 0.66 | -6% | -2.1 | -9.9 | 4.6
N#CCCn1ncc2ccccc21 | -5 | -0.1 | 0.72 | 2% | -0.8 | 4.7 | 3.6

Entries of single compounds, quoted from the list. Values in the order: Beta2AR agonist	Bfl-1 A1 inh	E coli growth	Vif A3G	HNF4A DNA FP	LANA-H2A inh	UCH37 inh
Record of COc1cc(CNC(=O)c2ccccc2NC(=O)C2=C(C)OCCS2)cc(OC)c1OC = -10	1.4	0.7	2%	0.2	2.1	1.4
Record of CCOC(=O)c1c(C)[nH]c(C(=O)COC(=O)c2ccco2)c1C = 7	1.6	0.7	-3%	2.5	-1.4	3.1
Record of Cc1ccccc1C1C(C#N)=C(N)N(N(C)C)C2=C1C(=O)CC(C)(C)C2 (stereo not given) = 1	1.3	0.71	nt	3.4	-3.3	-30

The list continues.
SMILES | Beta2AR agonist | Bfl-1 A1 inh | E coli growth | Vif A3G | HNF4A DNA FP | LANA-H2A inh | UCH37 inh
O=C(COc1cccnc1[N+](=O)[O-])Nc1cccc(S(=O)(=O)N2CCOCC2)c1 | -12 | 0.4 | 0.71 | 9% | -2.6 | -1.6 | 1.8
Cc1ccccc1CNC(=O)C(=O)NCC1OCCCN1S(=O)(=O)c1ccc(F)cc1C (stereo not given) | -6 | 1.0 | 0.71 | 0% | 0.2 | 0.9 | 1.8
O=C(CSc1nnc(-c2ccc(F)cc2)o1)N1CCCCC1 | -9 | -0.5 | 0.7 | nt | -3.1 | 1.9 | 2.3
Cc1ccc2cc(C)c(Sc3nnnn3-c3ccccc3)nc2c1 | 3 | 0.3 | 0.7 | nt | 1.1 | 6.9 | 3.0
O=C(Cc1ccc(Cl)cc1)Nc1ccc(SC(F)F)cc1 | -4 | 0.5 | 0.72 | -4% | 2.1 | 0.6 | 6.2
Cc1ccc(S(=O)(=O)N2CCCCC2CCNC(=O)C(=O)NCc2cccnc2)cc1 (stereo not given) | -4 | 0.6 | 0.69 | 7% | 3.6 | -1.2 | 6.3
Cn1c(SCc2ccc(F)cc2)nnc1-c1ccncc1 | -1 | 1.7 | 0.68 | 5% | -0.5 | 1.0 | 1.2
CCn1c(Oc2cccc(Br)c2)nc2c1c(=O)n(C)c(=O)n2C | 2 | -0.3 | 0.64 | nt | -1.5 | -2.8 | 1.4
O=C(NCCC1CCCC1)c1cccs1 | -7 | -2.2 | 0.68 | nt | -5.1 | -3.8 | 0.4
CC(Cc1nnc(SCC(=O)O)n1N)c1ccccc1 (stereo not given) | -6 | 0.2 | 0.67 | -4% | -1.1 | -1.1 | 0.1
Cc1ccc(NS(=O)(=O)c2ccc(C(=O)N3CC(C)OC(C)C3)cc2)cc1 (stereo not given) | 1 | -1.1 | 0.71 | nt | -5.1 | 1.1 | 5.1
COc1ccc(NC(=O)c2ccco2)c([N+](=O)[O-])c1 | -11 | 0.2 | 0.69 | nt | -0.2 | nt | 2.0
CCOc1ccccc1Nc1ccnc2cc(Cl)ccc12 | 0 | 0.0 | 0.69 | 3% | 1.4 | 7.1 | -9.5
O=C(c1cccc(C(F)(F)F)c1)N1CCCCCC1 | 6 | 1.3 | 0.64 | 29% | 2.6 | 0.6 | 2.7
CSc1ccc(CN2CCN(C3CCCC3)C(CCO)C2)cc1 (stereo not given) | 3 | -0.5 | 0.69 | -2% | -1.1 | -4.3 | 1.1
Cc1[nH]nc2c1C(c1ccc(F)cc1)C(C#N)=C(N)O2 (stereo not given) | 3 | 0.3 | 0.77 | 24% | -0.1 | 4.3 | 3.4
O=C(CNc1ccc(Br)cc1)c1ccc(Br)s1 | 3 | -0.5 | 0.68 | nt | 0.2 | -1.8 | 5.8
Cc1cc([N+](=O)[O-])nn1CC(=O)Nc1c(C)n(C)n(-c2ccccc2)c1=O | 0 | 0.3 | 0.74 | 10% | 3.1 | 8.8 | 4.5
COc1ccc(CCNC(=O)c2cnn3ccccc23)c(OC)c1OC | -2 | -0.1 | 0.74 | 0% | 1.6 | -0.1 | 3.2
CC(=O)c1cccc(OCc2cc(C(=O)N3C[C@@H](C)O[C@@H](C)C3)no2)c1 | -8 | -0.8 | 0.69 | nt | 1.2 | -1.9 | -0.3
Fc1ccc(Cn2nnnc2CN2CCc3ccccc3C2)cc1 | 3 | -0.3 | 0.69 | 3% | -0.6 | 0.7 | 1.0
O=C1N=C(N2CCN(c3ccccc3)CC2)S/C1=C/c1cccs1 | -1 | -0.5 | 0.67 | nt | 1.4 | -0.3 | 9.1
Cc1noc(C)c1CCC(=O)N1CCCC(N2CCN(c3ccc(F)cc3)CC2)C1 (stereo not given) | 2 | 0.5 | 0.67 | -4% | 5.1 | -1.6 | -1.4
CC(Sc1cccc[n+]1[O-])C(=O)NC1CCCCC1C (stereo not given) | 4 | -0.2 | 0.67 | nt | -0.5 | 3.7 | 0.7
Cn1c(CC(=O)NC(C)(C)CO)c(Sc2ccccc2)c2ccccc21 | -21 | 0.1 | 0.73 | 2% | 3.1 | 5.6 | 6.4
C[C@@]12C(=O)Nc3cc(Cl)ccc3C(=O)N1[C@H]1c3ccccc3OC[C@@H]1[C@@H]2c1ccccc1 | 0 | 0.1 | nt | nt | 4.4 | -0.6 | nt
CN(Cc1ccccc1)C(=O)c1cccc(NC(=O)Cc2ccc([N+](=O)[O-])cc2)c1 | -6 | 1.8 | 0.64 | nt | -1.5 | -4.9 | 41*
CC(C)(C)C(=O)Nc1c(Br)c(C2CC2)nn1-c1ccccc1 | 4 | 0.0 | 0.63 | -6% | 3.9 | -0.4 | 1.7
Nc1ccn(CC(=O)NCc2ccc3[nH]ccc3c2)c(=O)n1 | -8 | 0.6 | 0.71 | nt | 5.3 | -1.9 | 4.6
O=C(NCCCc1ccccc1)C1CCC(CNc2c(N3CCCCC3)c(=O)c2=O)CC1 (stereo not given) | -2 | -1.1 | 0.67 | nt | 4.8 | 0.4 | 4.5
O=C(Nc1ccccc1)/C(=C\c1ccco1)NC(=O)c1ccco1 | 7 | 0.5 | 0.68 | nt | 1.9 | 4.5 | 10
O=C(/C=C/c1ccc(Cl)cc1)Nc1ccc(N2CCCCC2)cc1 | 1 | 0.7 | 0.73 | -6% | 16 | 1.2 | 5.4
CC(C)n1c(N2CCCC2)nc2c1c(=O)[nH]c(=O)n2C | 4 | 0.4 | 0.68 | -10% | 0.0 | -2.2 | 1.2
CCOC(=O)c1[nH]c2ccc(OC)cc2c1NC(=S)N1CCN(c2ccccc2OC)CC1 | -4 | -0.2 | 0.71 | nt | 1.4 | -4.0 | 4.3
O=C1NC(c2ccccc2)=C(c2ccc3ccccc3n2)C(c2ccccc2)N1 (stereo not given) | 1 | -0.1 | 0.68 | 10% | 2.3 | -3.3 | -12
